ClpP mod – qHTS Assay for Activators of ClpP; ATP-dependent Clp protease proteolytic subunit (Bacillus subtilis (strain 168)), P80244; purified B. subtilis ClpP, FRET peptide cleavage, 20 min; Potency, µM (titrated, usually from 57.5 µM), inactives show top-dose activity change, negative = active; 340,000 compounds, 1.9% hits; AID 651965, 2013; active = well fitted falling curve with a large enough effect; inconclusive = small, poorly fitted or top-dose-only effect; inactive = no such curve, though single readings can be large or run the other way; also: potency is read from the fitted curve at half-maximal effect; the source files actives as falling curves though it sought activators and does not explain the sign; nearly all actives have a fitted effect of over 65% in size; many hits overshoot -100%
Target sequence (P80244 whole entry, looked up): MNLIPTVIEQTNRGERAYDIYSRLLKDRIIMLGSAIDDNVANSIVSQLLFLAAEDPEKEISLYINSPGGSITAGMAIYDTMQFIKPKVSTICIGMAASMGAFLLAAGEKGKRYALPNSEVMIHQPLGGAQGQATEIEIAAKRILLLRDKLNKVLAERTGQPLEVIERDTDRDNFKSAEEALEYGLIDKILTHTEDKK
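Buffer: 100 mM Tris/HCl pH8, 100 mM KCl, 0.05% low protease BSA, 2.5% glycerol, 0.01% Tween-20. ClpP 10 microg/mL final; 20 min RT; delta FRET normalized to ADEP and DMSO controls.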
gsp agonist – qHTS for Agonist of gsp, the Etiologic Mutation Responsible for Fibrous Dysplasia/McCune-Albright Syndrome: qHTS; gsp mutant cells, cAMP HTRF, 30 min; control for the full effect not named in the record; Potency, µM (highest dose often 76.9 µM), inactives show at the top dose activation (cAMP increase), most hits filed as activators; 340,000 compounds, 0.13% hits; active = well fitted activation curve with a large enough effect; inconclusive = small, poorly fitted or top-dose-only effect, or another doubt; inactive = no such curve, though single readings can be large or run the other way; cell line not stated here;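 also: phosphodiesterase inhibitor Ro 20-1724 added with compounds to block cAMP breakdown; potency is read from the fitted curve at half-maximal effect; nearly all actives have a fitted effect of over 60% in size; about a fifth of the inactives were tested at one dose only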
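Cells in DMEM/10% FBS with G418 were pretreated with compounds in DMSO plus […] (300 uM stock) for 30 min at 37C. cAMP was measured by HTRF (cAMP-d2 plus anti-cAMP antibody-K) after 30 min at room temperature.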
TRPML1 blocker – qHTS for Inhibitors of the Human Mucolipin Transient Receptor Potential 1 (TRPML1) | 390,000 compounds, 0.02% hits | Mucolipin-1 (Homo sapiens), Q9GZU1 | TRPML1-inducible cells, Ca2+ dye fluorescence, FDSS; hits give low values; inhibition of EC80 agonist-evoked calcium signal | activity change, negative = inhibition, % (test concentration not listed); in the data active means activity change below about -50%; inconclusive means about -30% to -50%; inactive means above about -30%;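 also: stimulus is agonist 54-4 at its EC80 concentration; % is scaled to controls: 0 for no effect and ±100 for the full control effect; compound concentration not given in the record; the text of the record puts the active cut at -80%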
Target sequence (Q9GZU1 whole entry, looked up): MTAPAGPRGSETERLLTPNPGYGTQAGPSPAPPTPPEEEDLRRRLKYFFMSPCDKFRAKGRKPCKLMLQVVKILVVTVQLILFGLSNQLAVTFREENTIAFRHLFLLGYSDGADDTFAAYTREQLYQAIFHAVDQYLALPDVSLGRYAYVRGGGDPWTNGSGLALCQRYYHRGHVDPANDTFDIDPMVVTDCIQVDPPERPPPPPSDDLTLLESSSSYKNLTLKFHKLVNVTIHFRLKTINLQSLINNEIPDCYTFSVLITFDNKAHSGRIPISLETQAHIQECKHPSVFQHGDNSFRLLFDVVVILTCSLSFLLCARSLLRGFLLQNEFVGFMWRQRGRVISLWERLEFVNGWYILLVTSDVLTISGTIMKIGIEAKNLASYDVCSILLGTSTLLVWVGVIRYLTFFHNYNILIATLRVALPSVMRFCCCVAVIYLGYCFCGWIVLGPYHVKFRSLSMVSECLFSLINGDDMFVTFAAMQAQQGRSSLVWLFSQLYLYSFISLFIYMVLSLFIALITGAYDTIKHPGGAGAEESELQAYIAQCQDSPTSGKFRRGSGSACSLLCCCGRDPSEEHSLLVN
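Calcium fluorescence in TRPML1-DL cells induced overnight with Tet: a 110 s read after compound pin addition, then a 110 s antagonist read after challenge with 54-4 at 4 uM final (EC80).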
gsp antagonist – qHTS for Antagonists of gsp, the Etiologic Mutation Responsible for Fibrous Dysplasia/McCune-Albright Syndrome: qHTS. Potency, µM (doses to about 76.9 µM), inactives show at the top dose activity change, negative = inhibition, most hits filed as inhibitors. AID 624288, 2012. gsp-mutant cells, cAMP HTRF, 30 min; control for the full effect not named in the record. 340,000 compounds, 0.4% hits; active = falling curve of any shape with a large fitted effect; inconclusive = falling curve, mostly with a smaller effect; inactive = flat or rising curve; cell line not stated here;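 also: intracellular cAMP measured with PDE inhibitor Ro 20-1724 present during compound exposure; potency is read from the fitted curve at half-maximal effect; % is scaled to controls: 0 for no effect and ±100 for the full control effect; nearly all actives have a fitted effect of over 65% in size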
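Measurement of cellular cAMP by homogeneous time-resolved fluorescence following a 30 min compound exposure at 37C. The PDE inhibitor […] was present throughout; the assay buffer was DPBS with 0.05% BSA and 0.005% Tween 20.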
TRPML1 ag – qHTS for Agonists of the Human Mucolipin Transient Receptor Potential 1 (TRPML1) | Mucolipin-1 (Homo sapiens), Q9GZU1 | TRPML1-expressing cells, Ca2+ dye fluorescence, FDSS; host cell line not named in the record; reference of the full effect not given here | activation, % (concentration not given with the values) | 410,000 compounds, 0.12% hits; in the data active = activation above about 50%; inconclusive = about 30% to 50%; inactive = below about 30%; also: 0% is about no effect; the text of the record puts the active cut at 80%
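In this qHTS format, compounds were pin-transferred onto Ca8-dye-loaded TRPML1-DL cells induced with Tet overnight, and intracellular Ca2+ fluorescence was recorded kinetically for 110 s after a 10 s baseline. A subsequent 4uM final 54-4 (EC80) addition followed by a second 110 s read served as the antagonist phase.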
Menin MLL FP FL – qHTS Assay for Inhibitors Targeting the Menin-MLL Interaction in MLL Related Leukemias: Competition With Fluorescein Labeled MLL-derived Peptide; Fluorescence polarization, fluorescein-MLL peptide displacement from menin; FP activity change, % at 61.4 µM; 290,000 tested, under 10 active; AID 1766, 2009; inconclusive = falling polarisation curve, or a change in total fluorescence; inactive = total fluorescence flat and polarisation flat or rising; no compound was filed as active; the % refers to the polarisation; negative = inhibition;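 also: % of control where 0% means no effect; inhibitors lower the polarisation; unlabelled MLL peptide was the positive control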
* = called active by the depositor; ? = inconclusive; nt = no result given; & = joins results of further samples; [ ] = another dose, or the depositor's remark. Rows are unselected. Share with any hit: about 2.1%.

Assay codes: A = ClpP mod; B = gsp agonist; C = TRPML1 blocker; D = gsp antagonist; E = TRPML1 ag; F = Menin MLL FP FL
Molecule: Cc1cc2c(cc1S(=O)(=O)NCCc1ccccc1)NC(=O)CO2
  A: nt	B: -17%[15.4 µM]	C: 32	D: 4%	E: 0.9	F: nt

Molecule: CCN(CCO)Cc1cc(=O)oc2c(C)c(C)ccc12
  A: -4.1%	B: -31%[inhibitor]	C: -3	D: 2%	E: 0.4	F: -2.7

Molecule: CCC(C)NS(=O)(=O)c1ccc(OC)c(Cl)c1Cl (centres undefined)
  A: 0.4%	B: -9%	C: 8	D: -19%	E: -0.1	F: 3.3

Molecule: CCN1CCN(C(C)CCc2ccccc2)CC1 (centres undefined)
  A: -0.4%	B: -18%[15.4 µM]	C: 0	D: 12%	E: 0.3	F: 0.1

Molecule: CCCCCCCCC(=O)N/N=C/c1ccccn1
  A: -0.1%	B: 24%	C: 3	D: -1%	E: 1.4	F: -0.8

Molecule: CCOC(=O)C1(CCCc2ccccc2)CCN(C(=O)Cn2nc(C)nc2C)CC1
  A: -2.4%	B: ?	C: 12	D: -1%	E: 1.1	F: 0.7

Molecule: Cc1nc(NC(=O)/C=C/c2ccccc2)sc1C(=O)NCCO
  A: -1.5%	B: 21%[15.4 µM]	C: 8	D: -4%	E: -1.0	F: -6.0

Molecule: C[C@H](CO)N1C[C@H](C)[C@@H](CN(C)C(=O)NC2CCCCC2)Oc2c(NC(=O)C3CC3)cccc2C1=O
  A: -3.0%	B: nt	C: -2	D: 4%	E: -0.3	F: nt

Molecule: Cc1ccc(C(=O)NC(O)C(Cl)Cl)cc1 (centres undefined)
  A: -20%	B: -2%	C: 17	D: 10%	E: -1.6	F: 2.1

Molecule: O=C(COc1ccc2ccccc2c1)N1CCN(c2ccccc2O)CC1
  A: -2.5%	B: -16%	C: 2	D: ?	E: -0.8	F: 4.2

Molecule: Cc1ccc(S(=O)(=O)N2c3ccccc3OCC2C(C)(C)C)cc1 (centres undefined)
  A: -1.0%	B: 24%	C: 73	D: -12%	E: 3.0	F: -0.6

Molecule: COc1cc(/C=C2\SC(=S)N(Nc3ccccc3)C2=O)cc(OC)c1OC
  A: -1.6%	B: -52%[inhibitor]	C: 14	D: -4%	E: -0.3	F: 11

Molecule: COCCOC(=O)C1=C(C)OC(N)=C(C#N)C1c1ccco1 (centres undefined)
  A: -0.7%	B: 20%	C: 18	D: -4%	E: -0.1	F: 1.7

Molecule: O=c1c2ccccc2nnn1CSc1nnc(-c2ccco2)o1
  A: -2.9%	B: 8%	C: -4	D: 5%	E: 2.0	F: 3.7

Molecule: CCc1ccc(C(=O)CN2C(=O)NC3(CCOc4ccccc43)C2=O)s1 (centres undefined)
  A: 2.1%	B: -1%	C: -3	D: 2%	E: 0.6	F: nt

Molecule: O=C(O)CCCC(=O)N1CCN(c2nc(-c3ccccc3Cl)c3cc(Br)ccc3n2)CC1
  A: -0.4%	B: ?	C: 11	D: 3%	E: 3.1	F: 0.4

Molecule: Oc1ccc(C[C@H]2CNCCN2CC2CCCCC2)cc1
  A: 1.0%	B: nt	C: 10	D: 10%	E: -0.6	F: nt

Molecule: COC(=O)c1cc(=O)n2c(sc3ccccc32)c1C#N
  A: nt	B: 13%[15.4 µM]	C: -19	D: ?	E: 0.2	F: 4.1

Molecule: O=C(c1cccc(Cl)c1)N1CCN(CCc2ccccn2)CC1
  A: -2.4%	B: nt	C: 2	D: nt	E: 1.4	F: nt

Molecule: O=C(Nc1ccc(N2CCOCC2)c(S(=O)(=O)Nc2cc(Cl)ccc2Cl)c1)c1cccnc1
  A: 3.5%	B: -16%	C: 12	D: -10%	E: -0.3	F: 6.0

Molecule: COc1cc(CC(=O)NCC2CCCCC2)cc(OC)c1OC
  A: -0.6%	B: -43%[inhibitor]	C: -5	D: -6%	E: 1.4	F: -1.3

Molecule: CCCCn1c(N)c(N(CC)C(=O)c2cc(Br)ccc2Cl)c(=O)[nH]c1=O
  A: nt	B: -2%[15.4 µM]	C: -11	D: 8%	E: -0.2	F: -1.2

Molecule: Cc1cc2nc(-c3ccc(SCc4ccccn4)nc3)[nH]c2cc1C
  A: nt	B: -10%[15.4 µM]	C: -1	D: ?	E: 1.2	F: 3.7

Molecule: COc1cc(NC(=O)CSc2nc3nc(C)c(Cc4ccc(C)cc4)c(C)n3n2)cc(OC)c1OC
  A: -3.8%	B: nt	C: 27	D: nt	E: 1.8	F: nt

Molecule: COc1cc(N2CCCC2)c(OC)cc1/C=C(/C#N)c1cccc(F)c1
  A: 0.7%	B: ?	C: -9	D: -14%	E: 12	F: ?

Molecule: CC1CCCN(CC(O)COCc2ccc3c(c2)OCO3)C1 (centres undefined)
  A: -1.2%	B: -5%[15.4 µM]	C: -15	D: 0%	E: -0.3	F: 0.4

Molecule: CC1Cc2ccccc2N1C(=O)Cn1cnc2c1c(=O)n(C)c(=O)n2C (centres undefined)
  A: 0.7%	B: 9%[15.4 µM]	C: -3	D: 16%	E: -0.2	F: nt

Molecule: O=C(Nc1ccc(N2CCN(C(=O)c3cccs3)CC2)cc1)c1ccccc1Cl
  A: nt	B: -1%[15.4 µM]	C: 36	D: -7%	E: -0.1	F: -2.6

Molecule: C/C(CC(=O)NCCCN1CCOCC1)=N\NC(=O)COc1cccc2ccccc12
  A: 0.7%	B: -24%	C: 9	D: 13%	E: -0.6	F: 0.4

Molecule: COc1ccc(-n2nc(C(=O)N(C)c3cc(Cl)ccc3OC)c3c4ccccc4n(C)c3c2=O)cc1
  A: -2.7%	B: nt	C: 32	D: nt	E: 3.8	F: nt

Molecule: CCOc1cccc(-c2nnc3sc(COc4ccc(Cl)cc4)nn23)c1
  A: 1.0%	B: -31%[inhibitor]	C: 4	D: -5%[15.4 µM]	E: 1.9	F: 2.5

Molecule: Cc1c(-c2cccc(Cl)c2)nc2ccccc2c1C(=O)OC/C(O)=C(\C#N)c1nc2ccccc2[nH]1
  A: -1.5%	B: -19%[15.4 µM]	C: 2	D: -8%	E: -0.2	F: ?

Molecule: CCOC1=C2[C@H]([C@H]3C(=O)N(c4ccccc4)C(=O)[C@H]3C1)[C@@H](C(C)C)N(S(=O)(=O)c1ccc(C)cc1)[C@H]2c1ccccc1
  A: 1.9%	B: nt	C: 0	D: nt	E: 0.4	F: nt

Molecule: CO/N=C/NC(=O)C1=NOC(CNc2ncc(C(F)(F)F)cc2Cl)C1 (centres undefined)
  A: -0.4%	B: -6%	C: -5	D: 10%	E: -0.2	F: -0.6

Molecule: COc1ccccc1CNC(=O)CCNS(=O)(=O)c1ccc2[nH]c(=O)oc2c1
  A: 0.0%	B: -41%[inhibitor]	C: 11	D: 11%	E: 0.1	F: nt

Molecule: O=C(c1ccc2c(c1)OCO2)C1CCCN(Cc2ccc3nsnc3c2)C1 (centres undefined)
  A: -3.8%	B: ?	C: 4	D: -6%	E: 0.7	F: 0.5

Molecule: CC1=CC(c2ccccc2)n2nc(N3C(=O)c4ccccc4C3=O)nc2N1 (centres undefined)
  A: 72%	B: -40%[inhibitor]	C: 8	D: -11%	E: -0.4	F: 0.9

Molecule: Cc1nc2c(OCc3ccc(Cl)cc3Cl)cccn2c1N(C)CC1CC1
  A: ?	B: nt	C: 18	D: nt	E: -0.8	F: nt

Molecule: O=C(CN1C(=O)NC(Cc2ccccc2)C1=O)Nc1ccccc1OC(F)F (centres undefined)
  A: -3.3%	B: -29%	C: 1	D: 7%	E: 0.4	F: nt

Molecule: COc1ccc(CCNS(=O)(=O)c2ccc([N+](=O)[O-])cc2)cc1OC
  A: 2.1%	B: 21%	C: 4	D: 2%	E: -0.6	F: -8.0

Molecule: Cc1ccc(C(=O)NNC(=O)c2cc(OCC(F)(F)F)ccc2OCC(F)(F)F)cc1
  A: 3.9%	B: -90%[inhibitor]	C: -10	D: -7%	E: -0.2	F: 6.0

Molecule: COc1cc(C(=O)NNC2=CC(=O)CC(C)(C)C2)cc(OC)c1OC
  A: -4.6%	B: 6%	C: -11	D: 6%	E: -0.1	F: 0.3

Molecule: O=C(NCCc1ccccn1)c1c(-c2ccccc2)sc2ccccc12
  A: -2.6%	B: nt	C: -11	D: -18%	E: 0.1	F: nt

Molecule: Cc1ccc(-c2cc(C(=O)OCC(=O)N(C)C3CCS(=O)(=O)C3)c3ccccc3n2)o1 (centres undefined)
  A: nt	B: -3%[15.4 µM]	C: -15	D: nt	E: 0.6	F: -5.1

Molecule: O=C(c1cc(COc2ccc(F)cc2Cl)on1)N(CCO)Cc1cccs1
  A: -0.9%	B: -2%	C: 5	D: 14%	E: 0.5	F: nt

Molecule: Cc1cccc(N(CC(=O)NCCc2ccccc2)C(=O)c2csnn2)c1
  A: nt	B: -12%	C: 2	D: 2%	E: -0.3	F: 0.9

Molecule: O=C1NC(=S)SC1=Cc1ccc(Cl)cc1
  A: nt	B: 22%	C: 5	D: 28µM*	E: 0.0	F: nt

Molecule: O=C(CCCN1C(=O)c2ccccc2C1=O)N1CCN(c2ccccn2)CC1
  A: 4.9%	B: -8%	C: -3	D: 1%	E: -0.2	F: 0.7

Molecule: CSc1nc2c(cnn2-c2ccc(C)c(C)c2)c(=O)[nH]1
  A: -3.0%	B: -5%	C: -2	D: 2%	E: -0.8	F: 0.0

Molecule: CC(OC(=O)c1cccc(-n2cnnn2)c1)C(=O)NC1(C#N)CCCCC1 (centres undefined)
  A: -0.3%	B: 0%	C: 21	D: 4%	E: -0.2	F: nt

Molecule: CCOC(=O)C[C@H]1c2ccccc2S(=O)(=O)N1c1ccccc1
  A: -0.5%&-1.3%	B: -4%	C: 3	D: 9%	E: -0.3&-1.0	F: nt

Compound activity from PubChem.
